High-throughput results from PubChem BioAssay.
Vaccinia stage: blocks a specific stage of Vaccinia orthopoxvirus infection, primary screen, cell-based, single point. Vaccinia-infected cells, mCherry/Venus stage reporter fluorescence; stronger effect = lower value; some inactives read as strong as hits. activity change (mCherry), % (concentration not given with the values). hit rate 0.01% among 89,000. AID 1053133, 2014;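 active = mCherry past -33% and 40 or more points under the early reporter, replicates agreeing; inconclusive = past -33% without that gap or agreement; tested in A549 cells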;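 also: scaled between vehicle wells and reference inhibitor wells; 23 nL library stock went into each well; one replicate is shown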
Vaccinia stage Venus: recorded beside Vaccinia stage, whose call it bears; activity change (Venus), %; measured here: Venus reporter, other viral stage;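 negative = less Venus signal; first of two replicates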
* marks the source's active call; other numbers are inactive results; ? = inconclusive; nt = no result given.

Below each SMILES: Vaccinia stage, Vaccinia stage Venus
1. COC(=O)C[C@@H]1CC[C@@H]2[C@H](COc3ccc(NC(=O)Cc4cccs4)cc3C(=O)N2C)O1
  -17, -8
2. CCCC#Cc1ccc([C@H]2[C@@H](CO)N3C(=O)CN(C(=O)c4ccc(F)cc4)C[C@H]23)cc1
  ?, nt
3. C[C@@H]1CN([C@@H](C)CO)C(=O)c2cc(NS(=O)(=O)c3ccccc3)ccc2O[C@H]1CN(C)S(=O)(=O)c1ccccc1
  4, -6
4. CO[C@@H]1CN(C)C(=O)c2ccc(NC(=O)Nc3ccccc3Cl)cc2OC[C@@H](C)N(C(C)=O)C[C@H]1C
  -18, -12
5. CC(C)C(=O)Nc1ccc2c(c1)C(=O)N(C)[C@H]1CC[C@@H](CC(=O)NCc3ccccc3)O[C@@H]1CO2
  4, 8
6. C[C@@H]1CCCCO[C@H](CN(C)C(=O)c2ccncc2)[C@H](C)CN([C@H](C)CO)C(=O)c2cc(N(C)C)ccc2O1
  7, 8
7. CC(C)NC(=O)N(C)C[C@H]1Oc2c(NC(=O)Nc3ccc4c(c3)OCO4)cccc2C(=O)N([C@H](C)CO)C[C@@H]1C
  11, 18
8. C[C@@H]1CCCCO[C@@H](CN(C)C(=O)CCCN(C)C)[C@@H](C)CN([C@H](C)CO)C(=O)c2cc(NS(=O)(=O)c3cccs3)ccc2O1
  31, 6
9. CO[C@H]1CC[C@H]2CCN(C)C(=O)[C@H](C)[C@H](OC)CN(C)C(=O)c3cccc(C#N)c3OC[C@H]1O2
  5, 4
10. C[C@H]1CN([C@@H](C)CO)C(=O)c2cc(Br)cnc2O[C@@H]1CN(C)C(=O)C1CCOCC1
  14, 8
11. C[C@@H]1CCCCO[C@@H](CN(C)CC2CCCCC2)[C@@H](C)CN([C@@H](C)CO)C(=O)c2cc(NS(=O)(=O)c3ccccc3)ccc2O1
  ?, nt
12. COc1ccc(CNC(=O)C[C@@H]2C=C[C@H](NC(=O)c3ccc4c(c3)OCO4)[C@@H](CO)O2)cc1
  -1, -1
13. C[C@@H]1CN([C@@H](C)CO)C(=O)c2cccc(NC(=O)Nc3ccc(F)cc3)c2O[C@H]1CN(C)CC1CCCCC1
  -6, 0
14. CC(C)NC(=O)N(C)C[C@H]1Oc2ccc(N(C)C)cc2CC(=O)N([C@H](C)CO)C[C@@H]1C
  6, 5
15. COc1ccc(NC(=O)N(C)C[C@@H]2Oc3ccc(NC(=O)Cc4ccccc4)cc3CC(=O)N([C@@H](C)CO)C[C@@H]2C)cc1
  3, 12
16. N#C[C@H]1[C@H](c2ccccc2-c2cccc(F)c2)[C@@H](CO)N1C(=O)NC1CCCC1
  -21, -9
17. CCNC(=O)C[C@@H]1CC[C@H]2[C@@H](COC[C@H](O)CN2Cc2ccccc2F)O1
  12, -1
18. CN(C)C(=O)c1ccc(-c2ccc([C@@H]3[C@@H](CO)N(C(=O)C4CCOCC4)[C@H]3C#N)cc2)cc1
  12, 3
19. CN1C(=O)c2cc(NC(=O)c3cscn3)ccc2OC[C@H]2O[C@H](CC(=O)N3CCCCC3)CC[C@H]21
  17, 8
20. C[C@@H]1CN([C@@H](C)CO)C(=O)c2cc(NC(=O)c3ccncc3)ccc2O[C@H]1CN(C)S(=O)(=O)c1cccs1
  31, 18
21. Cc1ccc(S(=O)(=O)Nc2ccc3c(c2)C(=O)N([C@@H](C)CO)C[C@H](C)[C@H](CN(C)CC2CCCCC2)O3)cc1
  -2, -1
22. COc1ccc(S(=O)(=O)N(C)C[C@H]2OCCCC[C@H](C)Oc3ccc(NS(=O)(=O)c4cn(C)cn4)cc3C(=O)N([C@@H](C)CO)C[C@@H]2C)cc1
  18, 0
23. COC(=O)c1c2oc(c1C(=O)OC)C(=O)N[C@@H](Cc1ccccc1)Cn1cc(nn1)CNC(=O)[C@H](Cc1ccccc1)NC(=O)N[C@@H](CO)CC2
  9, 0
24. C[C@H]1CN([C@@H](C)CO)S(=O)(=O)c2ccc(-c3ccc(C#N)cc3)cc2O[C@@H]1CN(C)C(=O)CN(C)C
  -1, 7
25. COc1ccc(NC(=O)Nc2ccc3c(c2)C(=O)N([C@H](C)CO)C[C@H](C)[C@@H](CN(C)C(=O)C2CCCCC2)OCCCC[C@H](C)O3)cc1
  -29, -27
26. CN(C)C(=O)c1cccc(-c2ccc([C@H]3[C@@H](CO)N(C(=O)C4CCCCC4)[C@H]3C#N)cc2)c1
  -7, -12
27. O=C(NCC[C@H]1CC[C@@H](NC(=O)C2CCCC2)[C@@H](CO)O1)c1cc(Cl)cc(Cl)c1
  0, 3
28. CCNC(=O)C[C@H]1CC[C@@H]2[C@H](COc3ccc(NC(=O)c4cscn4)cc3C(=O)N2C)O1
  -3, 2
29. COc1ccc(NC(=O)Nc2ccc3c(c2)C(=O)N([C@@H](C)CO)C[C@@H](C)[C@H](CN(C)CC2CC2)OCCCC[C@@H](C)O3)cc1
  12, 0
30. CCOc1ccc(N2C(=O)CSC2c2cccc([N+](=O)[O-])c2)cc1 (stereo not given)
  6, -1
31. CC(C)NC(=O)N(C)C[C@H]1Oc2c(NS(=O)(=O)c3ccc(F)cc3)cccc2C(=O)N([C@@H](C)CO)C[C@@H]1C
  7, 0
32. CO[C@H]1CN(C)C(=O)c2cc(NS(=O)(=O)c3ccc(C)cc3)ccc2OC[C@H](C)N(Cc2nccs2)C[C@H]1C
  0, 0
33. C[C@H]1CN([C@@H](C)CO)C(=O)CCCn2nncc2CO[C@@H]1CN(C)Cc1ccc2c(c1)OCO2
  15, 13
34. C[C@@H]1CN([C@@H](C)CO)C(=O)Cc2cc(NS(=O)(=O)c3ccccc3)ccc2O[C@@H]1CN(C)C
  1, 2
35. CCCNC(=O)N1C[C@H](C)[C@H](OC)CN(C)C(=O)c2cc(NS(=O)(=O)CC(F)(F)F)ccc2OC[C@H]1C
  -5, 1
36. C[C@H]1CCCCO[C@@H](CN(C)C(=O)CCCN(C)C)[C@@H](C)CN([C@@H](C)CO)C(=O)c2cc(NC(=O)c3ccccc3)ccc2O1
  8, 3
37. C[C@@H]1CN([C@H](C)CO)C(=O)Cc2cc(NC(=O)C3CC3)ccc2O[C@H]1CN(C)C(=O)NC1CCCCC1
  2, 2
38. COc1ccc(CN(C)C[C@H]2Oc3c(NC(=O)Nc4ccc(OC)cc4)cccc3C(=O)N([C@H](C)CO)C[C@H]2C)cc1
  10, 8
39. C[C@@H]1CN([C@@H](C)CO)C(=O)c2cc(NC(=O)Nc3ccc4c(c3)OCO4)ccc2O[C@@H]1CN(C)Cc1ccc(-c2ccccc2)cc1
  ?, nt
40. CC(C)COC(=O)N(C)C[C@@H]1OCc2ccccc2-c2c(n(C)c3ccccc23)C(=O)N([C@H](C)CO)C[C@H]1C
  ?, nt
41. Cc1noc(C)c1NC(=O)N(C)C[C@@H]1Oc2c(NC(=O)c3ccc(-c4nccs4)cc3)cccc2C(=O)N([C@@H](C)CO)C[C@H]1C
  14, 20
42. C[C@H](CO)N1C[C@H](C)[C@@H](CN(C)C(=O)Cc2cccnc2)Oc2ncc(C#CCc3ccccc3)cc2C1=O
  14, 9
43. CNC[C@H]1Oc2ccc(NC(=O)C3CC3)cc2C(=O)N([C@@H](C)CO)C[C@@H]1C
  10, 7
44. CN(C[C@@H]1[C@@H](c2ccccc2)[C@H](CO)N1CC1CC1)C(=O)c1ccccc1
  12, 14
45. CCCC#Cc1ccc([C@@H]2[C@@H](CO)N3CCCCN(C(=O)c4ccc5c(c4)OCO5)C[C@@H]23)cc1
  ?, nt
46. O=C(C1CC1)N1CCCCN2[C@H](CO)[C@H](c3ccc(C#CC4(O)CCCC4)cc3)[C@H]2C1
  6, 2
47. CO[C@@H]1CN(C)C(=O)c2ccc(NC(=O)c3cc(C)on3)cc2OC[C@@H](C)N(C(=O)C2CC2)C[C@H]1C
  -7, -9
48. CN(C)CC(=O)N[C@@H]1CC[C@@H](CCn2cc(C3CC3)nn2)O[C@@H]1CO
  7, 7
49. C[C@@H]1CN([C@@H](C)CO)C(=O)c2cc(C#CC3(O)CCCC3)cnc2O[C@@H]1CN(C)Cc1ccccn1
  10, 8
50. CCCC#Cc1ccc2c(c1)O[C@H](CN(C)C(=O)COC)[C@H](C)CN([C@H](C)CO)S2(=O)=O
  9, -10
51. CN1[C@@H]2Cn3c(ccc(-c4cccc(F)c4)c3=O)[C@H]1[C@@H](C(=O)N1CCCCC1)[C@@H]2CO
  -13, -1
52. C[C@@H]1CN([C@H](C)CO)C(=O)c2cc(NC(=O)Nc3cccc4ccccc34)ccc2O[C@H]1CN(C)Cc1ccc(C(=O)O)cc1
  7, -3
53. C[C@H](CO)N1C[C@H](C)[C@H](CN(C)Cc2ccc(Cl)c(Cl)c2)Oc2ccc(NC(=O)Cn3cnnn3)cc2C1=O
  11, 3
54. CN(C)c1ccc2c(c1)[C@@H]1C[C@H](CC(=O)N3CCc4ccccc4C3)O[C@H](CO)[C@@H]1O2
  9, 6
55. C[C@@H]1CN([C@@H](C)CO)C(=O)c2cccc(NS(=O)(=O)c3cccs3)c2O[C@@H]1CN(C)CC1CCCCC1
  2, 6
56. C[C@@H]1CN([C@H](C)CO)C(=O)c2cc(Br)cnc2O[C@@H]1CN(C)S(=O)(=O)c1ccc(F)cc1
  9, -9
57. C[C@@H](NC(=O)C[C@@H]1C=C[C@H](NS(=O)(=O)c2cccc(F)c2)[C@H](CO)O1)c1ccccc1
  -3, 1
58. Cc1noc(C)c1NC(=O)Nc1ccc2c(c1)C(=O)N([C@@H](C)CO)C[C@H](C)[C@H](CN(C)Cc1ccccc1)O2
  19, 22
59. C/C=C/c1ccc([C@H]2[C@@H](CO)N(c3nc(-c4ccccc4)cs3)[C@H]2C#N)cc1
  11, 2
60. COc1ccccc1CN1[C@@H]2Cn3c(ccc(C4=CCCCC4)c3=O)[C@H]1[C@@H](C(=O)N(C)C)[C@@H]2CO
  18, 1

Some of the entries above in a different format.
| entry | SMILES | Vaccinia stage | Vaccinia stage Venus |
| --- | --- | --- | --- |
| 42 | C[C@H](CO)N1C[C@H](C)[C@@H](CN(C)C(=O)Cc2cccnc2)Oc2ncc(C#CCc3ccccc3)cc2C1=O | 14 | 9 |
| 43 | CNC[C@H]1Oc2ccc(NC(=O)C3CC3)cc2C(=O)N([C@@H](C)CO)C[C@@H]1C | 10 | 7 |
| 44 | CN(C[C@@H]1[C@@H](c2ccccc2)[C@H](CO)N1CC1CC1)C(=O)c1ccccc1 | 12 | 14 |
| 45 | CCCC#Cc1ccc([C@@H]2[C@@H](CO)N3CCCCN(C(=O)c4ccc5c(c4)OCO5)C[C@@H]23)cc1 | ? | nt |
| 46 | O=C(C1CC1)N1CCCCN2[C@H](CO)[C@H](c3ccc(C#CC4(O)CCCC4)cc3)[C@H]2C1 | 6 | 2 |
| 47 | CO[C@@H]1CN(C)C(=O)c2ccc(NC(=O)c3cc(C)on3)cc2OC[C@@H](C)N(C(=O)C2CC2)C[C@H]1C | -7 | -9 |
| 48 | CN(C)CC(=O)N[C@@H]1CC[C@@H](CCn2cc(C3CC3)nn2)O[C@@H]1CO | 7 | 7 |
| 49 | C[C@@H]1CN([C@@H](C)CO)C(=O)c2cc(C#CC3(O)CCCC3)cnc2O[C@@H]1CN(C)Cc1ccccn1 | 10 | 8 |
| 50 | CCCC#Cc1ccc2c(c1)O[C@H](CN(C)C(=O)COC)[C@H](C)CN([C@H](C)CO)S2(=O)=O | 9 | -10 |
| 51 | CN1[C@@H]2Cn3c(ccc(-c4cccc(F)c4)c3=O)[C@H]1[C@@H](C(=O)N1CCCCC1)[C@@H]2CO | -13 | -1 |
| 52 | C[C@@H]1CN([C@H](C)CO)C(=O)c2cc(NC(=O)Nc3cccc4ccccc34)ccc2O[C@H]1CN(C)Cc1ccc(C(=O)O)cc1 | 7 | -3 |

(more compounds)
Below each SMILES: Vaccinia stage, Vaccinia stage Venus
61. C[C@@H]1CN([C@@H](C)CO)C(=O)c2cc(-c3ccc(C#N)cc3)cnc2O[C@@H]1CN(C)C(=O)c1cccnc1
  18, 14
62. CO[C@@H]1CN(C)C(=O)c2cc(NC(=O)c3cnccn3)ccc2OC[C@H](C)NC[C@H]1C
  8, 15
63. COc1cccc(-c2ccc([C@H]3[C@H]4CN(C(=O)CN5CCOCC5)CC(=O)N4[C@H]3CO)cc2)c1
  10, -4
64. O=S(=O)(NCC[C@H]1CC[C@@H](NS(=O)(=O)c2ccccc2Cl)[C@@H](CO)O1)c1ccc(F)cc1
  5, 5
65. Cn1cnc(S(=O)(=O)N[C@H]2C=C[C@H](CC(=O)Nc3ccc(-c4ccccc4)cc3)O[C@H]2CO)c1
  2, 9
66. COCC(=O)N1CC2(C1)[C@H](c1ccccc1)[C@@H](CO)N2CCC(F)(F)F
  1, 3
67. C[C@@H]1CCCCO[C@H](CN(C)Cc2ccccc2)[C@H](C)CN([C@H](C)CO)C(=O)c2cc(NS(=O)(=O)c3cccs3)ccc2O1
  -24, -20
68. C[C@H](O)C#Cc1ccc2c(c1)O[C@H](CN(C)Cc1cccnc1)[C@H](C)CN([C@@H](C)CO)S2(=O)=O
  5, 3
69. C[C@H]1CCCCO[C@H](CN(C)C(=O)c2ccccc2)[C@@H](C)CN([C@@H](C)CO)C(=O)c2cc(NC(=O)Nc3ccc(C(F)(F)F)cc3)ccc2O1
  -19, -2
70. CO[C@H]1CN(C)C(=O)c2cc(NC(=O)C3CC3)ccc2OC[C@@H](C)N(Cc2nccs2)C[C@H]1C
  2, -1
71. C[C@H](CO)N1C[C@H](C)[C@@H](CN(C)S(=O)(=O)c2ccc(Cl)cc2)Oc2ccc(NC(=O)Cc3cn(C)c4ccccc34)cc2C1=O
  -18, -8
72. C[C@H](CO)N1C[C@H](C)[C@H](CN(C)C(=O)Nc2ccc3c(c2)OCO3)Oc2ncc(C#Cc3cccc(F)c3)cc2C1=O
  ?, nt
73. O=C(C[C@H]1C=C[C@@H](NC(=O)Nc2cc(F)ccc2F)[C@@H](CO)O1)NCc1ccc2c(c1)OCO2
  -13, -11
74. CNC[C@@H]1Oc2ccc(NS(=O)(=O)c3cccs3)cc2C(=O)N([C@@H](C)CO)C[C@H]1C
  10, 9
75. COc1ccccc1C#Cc1ccc([C@@H]2[C@@H](CO)N3CCCCN(S(C)(=O)=O)C[C@H]23)cc1
  -19, -20

Only part of the results is shown (hit frequency here may not be typical).
